Screening results (PubChem BioAssay)
HPGD inh – qHTS Assay for Inhibitors of HPGD (15-Hydroxyprostaglandin Dehydrogenase); 15-hydroxyprostaglandin dehydrogenase [NAD(+)] (Homo sapiens), P15428; purified HPGD, NADH fluorescence kinetic, PGE2 substrate; Potency, µM, without a hit: at the top dose activity change, negative = inhibition, usual class: inhibitors; 150,000 compounds, 4.3% hits; AID 894, 2007; active = well fitted inhibition curve with a large enough effect (not every such curve was filed as active); inconclusive = small, poorly fitted or top-dose-only effect, or another doubt; inactive = no such curve, though single readings can be large or run the other way;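 further: top concentration of the series not given in the record; plate controls included wells without enzyme; inactives centre near -10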
Target sequence (P15428 whole entry, looked up): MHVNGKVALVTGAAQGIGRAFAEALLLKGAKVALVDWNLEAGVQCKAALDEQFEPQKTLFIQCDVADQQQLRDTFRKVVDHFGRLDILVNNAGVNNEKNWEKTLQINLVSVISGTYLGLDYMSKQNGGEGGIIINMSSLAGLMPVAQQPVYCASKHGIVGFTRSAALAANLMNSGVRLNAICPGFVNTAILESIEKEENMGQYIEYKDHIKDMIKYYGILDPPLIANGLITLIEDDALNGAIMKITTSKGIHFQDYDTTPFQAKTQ
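NADH formation kinetics: reaction with 30 uM PGE2 and 1 mM NAD+ (final), 20 nM enzyme, Tris-HCl pH 8 with Tween 20, after 15 min compound preincubation at room temperature. Fluorescence change, last versus first of five reads.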
Numbers without * were called inactive; & = joins results of further samples. On the % scale 0 is the no-effect control and ±100 the full control effect; potency means the concentration at half of the fitted maximal effect.

Results for N#CC1=C(N)Oc2c(c(=O)oc3ccccc23)C1c1cccnc1 (stereo not given) ?
HPGD inh: -20%

How did COc1ccc(C(=O)C2(C)N(O)C(C)C(c3cccs3)=[N+]2[O-])cc1 (stereo not given) do in these assays?
HPGD inh: -6%

How did CCCc1[nH][nH]c(=O)c1C(c1ccccc1)C(C#N)C#N (stereo not given) do in these assays?
HPGD inh: inconclusive

What do the screens show for `Cc1ccc(NP(=O)(Oc2ccccc2F)Oc2ccccc2F)cc1C`?
HPGD inh: -18%

How did Nc1ccccc1C(=O)O do in these assays?
HPGD inh: -20%

What do the screens show for `O=c1c2ccccc2ncn1-c1ccc([N+](=O)[O-])c(C(F)(F)F)c1`?
HPGD inh: -4%

Results for O=c1[nH]c(=O)n(CCc2ccccc2)c(O)c1C=NCCN1CCNCC1 ?
HPGD inh: inconclusive

How did CC(C)[C@@]1(NC(=O)[C@@H]2C=C3c4cccc5[nH]cc(c45)C[C@H]3N(C)C2)O[C@@]2(O)[C@@H]3CCCN3C(=O)[C@H](Cc3ccccc3)N2C1=O do in these assays?
HPGD inh: inconclusive

What do the screens show for `C=CCn1c(O)c(C(C)=NCc2ccco2)c(=O)[nH]c1=O`?
HPGD inh: -11%

What do the screens show for `CCCCn1c(NS(=O)(=O)c2ccccc2)c(C(=O)OCC)c2nc3ccccc3nc21`?
HPGD inh: inconclusive

How did COC1=CC=C2[C@H]3Cc4ccc(OC)c5c4[C@@]2(CCN3C)[C@H]1O5 do in these assays?
HPGD inh: -11%

How did ClCCOCCCl do in these assays?
HPGD inh: -5%

What do the screens show for `C=CCn1c(O)c(C(C)=NCCC2=CCCCC2)c(=O)[nH]c1=O`?
HPGD inh: 2%

Results for CCCc1nc2ccccc2c(=O)n1-c1ccc(OC)cc1 ?
HPGD inh: -15%

Results for Nc1ccc(Br)cc1 ?
HPGD inh: -11%

What do the screens show for `CN1CCc2nc3sc(C#N)c(N)c3c(-c3cccs3)c2C1`?
HPGD inh: -8%

How did CCCC/C=C/[C@@H](NP(=O)(c1ccccc1)c1ccccc1)c1ccccc1OC do in these assays?
HPGD inh: -11%

What do the screens show for `Nc1c2c(nc3sc4c(c13)CCCCC4)CCCC2`?
HPGD inh: -17%

How did Cc1ccc(-n2c(O)c(/C=N/NC(=O)c3ccncc3)c(=O)[nH]c2=O)cc1 do in these assays?
HPGD inh: inconclusive

What do the screens show for `C[C@@H]1CC[C@H]2[C@@H](C)C(=O)O[C@@H]3OC4(C)CC[C@@H]1[C@]32OO4`?
HPGD inh: -8%

Some of these compounds in order of molecular weight, ascending:
Results for Nc1ccc(Br)cc1 ?
HPGD inh: -11%

How did COC1=CC=C2[C@H]3Cc4ccc(OC)c5c4[C@@]2(CCN3C)[C@H]1O5 do in these assays?
HPGD inh: -11%

How did CCCC/C=C/[C@@H](NP(=O)(c1ccccc1)c1ccccc1)c1ccccc1OC do in these assays?
HPGD inh: -11%

Next section.
How did CCSc1nnc(C(N)Cc2ccccc2)o1 (stereo not given) do in these assays?
HPGD inh: 0%

Results for O=C1CCCN1C(=O)c1cncc(Br)c1 ?
HPGD inh: -12%

How did COc1ccc(C2SCC(=O)Nc3c2c(C)nn3-c2ccccc2)cc1OC (stereo not given) do in these assays?
HPGD inh: inconclusive

What do the screens show for `CC(=O)C1C(=O)NC23CCCCC2C1c1ccccc1O3` (stereo not given)?
HPGD inh: -10%

Results for O=c1[nH]c(=S)n(CCC2=CCCCC2)c(O)c1C=NCCCn1ccnc1 ?
HPGD inh: -15%

What do the screens show for `CN(C)C(=O)Oc1ccc(-c2cn3cc(C(F)(F)F)ccc3n2)cc1`?
HPGD inh: inconclusive

How did Cc1ccc(-c2cn3c(=S)[nH]nc3s2)cc1 do in these assays?
HPGD inh: 28µM*

Results for Cc1nn(Cc2ccc(Cl)cc2Cl)c(Cl)c1C(=O)Nc1ccc(OC(F)F)cc1 ?
HPGD inh: -3%

How did COc1cc2c(cc1OC)[C@@]13CCN4CC5=CCO[C@H]6CC(=O)N2[C@H]1[C@H]6[C@H]5C[C@H]43 do in these assays?
HPGD inh: -10%

How did Cc1cc(C(=O)N=Nc2c(O)n(C)c3ccccc23)c(C)o1 do in these assays?
HPGD inh: -11%

Results for COP(N)(=O)SC (stereo not given) ?
HPGD inh: -2%

Results for O=[N+]([O-])c1ccc(N2CCNCC2)cc1Sc1ccccn1 ?
HPGD inh: -10%

What do the screens show for `CCCCn1c(O)c(C(C)=NCCc2ccccc2)c(=O)[nH]c1=O`?
HPGD inh: -1%

Results for C=C1CC[C@H](O)C/C1=C/C=C1\CCC[C@]2(C)[C@@H]([C@H](C)CCCC(C)C)CC[C@@H]12 ?
HPGD inh: inconclusive

What do the screens show for `CC(C)COc1ccc(C2(C#N)CC[N+](C)(C)CC2)cc1`?
HPGD inh: -1%

Results for CNCCc1nc(N)n[nH]1 ?
HPGD inh: -16%

Results for Cc1ccccc1-n1c(O)c(C=Nc2ccc(N(C)C)cc2)c(=O)[nH]c1=O ?
HPGD inh: -5%

How did Nc1ccc(Sc2ccc(N)cc2)cc1 do in these assays?
HPGD inh: -2%

Results for O=C(c1cc2c(s1)-c1ccccc1OC2)N1CCC2(CC1)OCCO2 ?
HPGD inh: inconclusive

What do the screens show for `CCS(=O)(=O)N1CCC(C(=O)N2CCC3(CC2)OCCO3)CC1`?
HPGD inh: 0%

Results for COC(=O)C1=CO[C@@H](C)[C@@H]2CN3CC[C@@]4(C(=O)Nc5ccccc54)[C@@H]3C[C@H]12 ?
HPGD inh: -2%

What do the screens show for `CNC(=O)Oc1ccccc1OC(C)C`?
HPGD inh: -11%

What do the screens show for `CCCCCc1nc2c(c(=O)c3ccccc3n2C)c(=O)n1C1CCCCCC1`?
HPGD inh: -1%

What do the screens show for `CN1C(=O)c2ccccc2Sc2ccc(C(=O)N3CCC4(CC3)OCCO4)cc21`?
HPGD inh: -7%

How did OC(c1ccccc1)(c1ccccc1)C1CCNCC1 do in these assays?
HPGD inh: -3%&-8%

How did Cc1ccc(N2C(=O)/C(=C/c3ccc(CN(CCC#N)S(C)(=O)=O)o3)C(=O)NC2=S)cc1C do in these assays?
HPGD inh: 14µM*

How did CCCCCSc1cc(OC)c(CCNC)cc1OC do in these assays?
HPGD inh: 1%

How did COP(=O)(OC)c1nc(-c2cccc3ccccc23)oc1N1CCOCC1 do in these assays?
HPGD inh: inconclusive

How did Cc1cccc(C(=O)O)c1O do in these assays?
HPGD inh: inconclusive

Results for Cc1ccc(-n2c(-c3cccs3)nc3ccccc3c2=O)cc1 ?
HPGD inh: -14%

Results for CN(C)C(=O)Oc1cccc2c(OC(=O)N(C)C)cccc12 ?
HPGD inh: -8%

How did C=CCN1C(=O)NC(=O)/C(=C/c2cnc(SC)nc2)C1=O do in these assays?
HPGD inh: -4%

What do the screens show for `CC/C(=C\C=C\[C@@H]1C=C[C@@H]2CCC[C@H]2[C@@H]1C(=O)c1ccc[nH]1)[C@@H]1O[C@@H]([C@@H](C)C(=O)O)CC[C@@H]1C`?
HPGD inh: -7%

How did O=C(NCc1ccccn1)c1ccccc1Cl do in these assays?
HPGD inh: 6.3µM*

How did COc1ccc(CC[n+]2cc(/N=C(\C)[O-])on2)cc1OC do in these assays?
HPGD inh: -13%

How did Nc1ccc2c3c(cccc13)CC2 do in these assays?
HPGD inh: inconclusive

Results for O=C(CNS(=O)(=O)c1cccs1)N1CCC2(CC1)OCCO2 ?
HPGD inh: -1%

Results for [O]=[Cr](=[O])([OH])[O][Cr](=[O])(=[O])[OH] ?
HPGD inh: -8%&-3%&-8%

How did CN1C(=O)C(=Cc2ccc(N3CCOCC3)o2)C(=O)N(C)C1=O do in these assays?
HPGD inh: 16µM*

What do the screens show for `COc1cc2ccc(=O)oc2c2ccoc12`?
HPGD inh: inconclusive

Results for Cc1cc(C=C2C(=O)NC(=S)NC2=O)c(C)n1-c1ccc2c(c1)OCO2 ?
HPGD inh: 8.9µM*

How did Cc1nc2cc(C(F)(F)F)ccc2n1C1CCN(Cc2nnnn2CCc2ccccc2)CC1 do in these assays?
HPGD inh: 0%

What do the screens show for `COc1cc(/C=C/[N+](=O)[O-])ccc1O`?
HPGD inh: -24%

How did O=C(C1CC(=O)N(C2CCCC2)C1)N1CCC2(CC1)OCCO2 (stereo not given) do in these assays?
HPGD inh: 6%

What do the screens show for `Cc1c(Cl)cccc1NC(=S)N1CC2CC(C1)c1cccc(=O)n1C2` (stereo not given)?
HPGD inh: -18%

What do the screens show for `CC(C)C(O)(C(=O)OC[C@@H]1CC[N+]2([O-])CCCC12)C(C)O` (stereo not given in full)?
HPGD inh: -3%

How did CNC[C@H](O)c1ccc(O)c(OC)c1 do in these assays?
HPGD inh: -1%

How did O=C(Nc1ccccc1OC(=O)N1CCOCC1)N1CCOCC1 do in these assays?
HPGD inh: -6%

Results for CN(C)[C@@H]1C(=O)C(C(N)=O)=C(O)[C@]2(O)C(=O)C3=C(O)c4c(O)cccc4[C@](C)(O)[C@H]3C[C@@H]12 ?
HPGD inh: -29%

What do the screens show for `O=C(O)C[O][Sb][O]CC(=O)O`?
HPGD inh: 0%

Results for Cc1ccc(-n2c(C)cc(/C=C3\C(=O)NC(=O)N(C)C3=O)c2C)cc1C ?
HPGD inh: -10%

What do the screens show for `COP(=S)(OC)Oc1ccc([N+](=O)[O-])cc1`?
HPGD inh: -6%&-6%

What do the screens show for `C/C(CC(c1ccccc1)c1c(O)c2ccccc2oc1=O)=N\NC(N)=S` (stereo not given)?
HPGD inh: inconclusive

How did CCCCCCCCCCCCCC(=O)O[C@@H]1[C@@H](C)[C@@]2(O)[C@@H](C=C(CO)C[C@]3(O)C(=O)C(C)=C[C@@H]23)[C@@H]2C(C)(C)[C@]12OC(C)=O do in these assays?
HPGD inh: -19%

What do the screens show for `CCN1CCN(Cc2nnnn2C(C)(C)C)CC1`?
HPGD inh: -3%

What do the screens show for `CC(C)OC(=O)C1C(=O)NC2(C)CC1c1ccccc1O2` (stereo not given)?
HPGD inh: -17%

Results for CCCC(C)C1(CC)C(=O)N=C(S)NC1=O (stereo not given) ?
HPGD inh: -2%

How did C[C@H](Br)CN(C[C@H](C)Br)c1ccc2c(c1)Cc1ccccc1-2 do in these assays?
HPGD inh: -17%

Results for O=C(O)/C=C\c1ccc[c]([Sb])c1 ?
HPGD inh: -4%

What do the screens show for `OC[P+](CO)(CO)CO`?
HPGD inh: -14%

What do the screens show for `CCCCn1c(O)c(C(C)=NCc2ccc(F)cc2)c(=O)[nH]c1=O`?
HPGD inh: -7%

How did OCC12CO[C@@H]3c4ccccc4[C@H](OC1)N32 (stereo not given in full) do in these assays?
HPGD inh: 2%

Results for C[C@@H](O)CN(CCN(C[C@@H](C)O)C[C@@H](C)O)C[C@@H](C)O.O=[N+]([O-])O.[Cu] ?
HPGD inh: 4%

How did CC(C)[C@]12CC(=O)[C@H](C)[C@H]1C2 do in these assays?
HPGD inh: -5%

Results for C[N+]12CN3CN(CN(C3)C1)C2 ?
HPGD inh: 2%

What do the screens show for `O=C(CN1C(=O)CN=C(c2ccccc2Cl)c2cc(Cl)ccc21)NCc1ccco1`?
HPGD inh: 4%

Results for COc1ccc2[nH]cc(CCN(C)C)c2c1 ?
HPGD inh: -13%

How did CC1CCCC(C)N1/N=C/c1c[nH]c2ccc(Br)cc12 (stereo not given) do in these assays?
HPGD inh: -16%

How did CCN1CCN(Cc2ccccc2C)CC1 do in these assays?
HPGD inh: -7%

How did O=C1NC(=O)N(c2ccc3c(c2)OCO3)C(=O)/C1=C/c1ccc(N2CCCCC2)o1 do in these assays?
HPGD inh: -12%

Results for COC(=O)C1=CO[C@@H](C)[C@@H]2CN3CC[C@]4(C(=O)Nc5ccccc54)[C@@H]3C[C@H]12 ?
HPGD inh: -9%

What do the screens show for `Cc1ccc(C(=O)C2CN(C)CC2C(=O)c2ccc(C)cc2)cc1` (stereo not given)?
HPGD inh: -5%

How did CC/C=C\C/C=C\C/C=C\C/C=C\C/C=C\CCCC(=O)NCCc1ccc(O)c(O)c1 do in these assays?
HPGD inh: -4%

What do the screens show for `O=c1c2ccccc2nc(-c2ccco2)n1-c1ccncc1`?
HPGD inh: -16%

What do the screens show for `COCc1cc(C)c(C#N)c(=S)[nH]1`?
HPGD inh: inconclusive

How did CN(C)C(Cc1ccccc1)C(=O)c1ccc(-c2ccccc2)cc1 (stereo not given) do in these assays?
HPGD inh: -27%

How did Nc1cc(Cl)c2nonc2c1[N+](=O)[O-] do in these assays?
HPGD inh: inconclusive

Results for CC(C)Cn1cc(C(=O)N2CCC3(CC2)OCCO3)c2c3ccccc3n(C)c2c1=O ?
HPGD inh: inconclusive

Results for Cn1c(O)c(C(=N)COc2cccc(Cl)c2)c(=O)n(C)c1=O ?
HPGD inh: -13%

How did C=C(C)CN1CC[C@@]23c4c5ccc(O)c4O[C@H]2c2[nH]c4ccccc4c2C[C@]3(O)[C@@H]1C5 do in these assays?
HPGD inh: -17%

Results for C=C(C)CCl ?
HPGD inh: -10%

How did CS(=O)(=O)N1CCC2(CC1)CN(Cc1ccncc1)C2 do in these assays?
HPGD inh: -6%

What do the screens show for `CC1C(=O)OC2C1CC[C@@]1(C)C=CC(=O)[C@@]3(C)O[C@@]213` (stereo not given in full)?
HPGD inh: 3%

Random excerpt: six compounds from above.
How did OC(c1ccccc1)(c1ccccc1)C1CCNCC1 do in these assays?
HPGD inh: -3%&-8%

How did OCC12CO[C@@H]3c4ccccc4[C@H](OC1)N32 (stereo not given in full) do in these assays?
HPGD inh: 2%

How did C=CCN1C(=O)NC(=O)/C(=C/c2cnc(SC)nc2)C1=O do in these assays?
HPGD inh: -4%

What do the screens show for `O=C(CN1C(=O)CN=C(c2ccccc2Cl)c2cc(Cl)ccc21)NCc1ccco1`?
HPGD inh: 4%

What do the screens show for `C/C(CC(c1ccccc1)c1c(O)c2ccccc2oc1=O)=N\NC(N)=S` (stereo not given)?
HPGD inh: inconclusive

Results for O=c1[nH]c(=S)n(CCC2=CCCCC2)c(O)c1C=NCCCn1ccnc1 ?
HPGD inh: -15%

An excerpt; rates above refer to the full screens.
